HPGD inh: HPGD (human) dehydrogenase inhibition | purified HPGD, NADH fluorescence kinetic, PGE2 substrate | P15428 | actives 4.3% (n = 150,000) | AID 894 | Potency, µM, for inactives: at the top dose activity change, negative = inhibition, usual class: inhibitors; active = well fitted inhibition curve with a large enough effect (not every such curve was filed as active); inconclusive = small, poorly fitted or top-dose-only effect, or another doubt; inactive = no such curve, though single readings can be large or run the other way;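 further: top concentration of the series not given in the record; plate controls included wells without enzyme; inactives centre near -10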
Target sequence (P15428 whole entry, looked up): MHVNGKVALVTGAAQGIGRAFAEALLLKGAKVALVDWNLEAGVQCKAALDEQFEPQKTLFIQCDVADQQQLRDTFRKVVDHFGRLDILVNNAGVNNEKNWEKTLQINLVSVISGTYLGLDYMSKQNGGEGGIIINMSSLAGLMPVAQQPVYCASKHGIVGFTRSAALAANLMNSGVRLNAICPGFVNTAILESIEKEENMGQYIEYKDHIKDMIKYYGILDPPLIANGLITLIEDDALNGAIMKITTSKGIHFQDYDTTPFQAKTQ
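NADH formation kinetics: reaction with 30 uM PGE2 and 1 mM NAD+ (final), 20 nM enzyme, Tris-HCl pH 8 with Tween 20, after 15 min compound preincubation at room temperature. Fluorescence change, last versus first of five reads.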
Numbers without * were called inactive; ? = inconclusive; & = joins results of further samples. On the % scale 0 is the no-effect control and ±100 the full control effect; potency means the concentration at half of the fitted maximal effect. The list is partial (hit frequency here may not be typical).

SMILES | HPGD inh
COCCCNC(=O)C1CCCN(S(C)(=O)=O)C1 (stereo unspecified) | -9%
Nc1nc(SCC(=O)Nc2ccccc2Oc2ccccc2)n[nH]1 | -5%
Cc1cc(C)n2c(SCC(=O)Nc3ccc(Cl)cn3)nnc2n1 | -10%
CCn1nc(C)c(Oc2ccccc2O)c1C | -5%
COc1cccc(-c2nnc(SCCOc3ccc4c(C)cc(=O)oc4c3)o2)c1 | ?
O=[N+]([O-])c1cc2nc(O)c(O)nc2cc1[N+](=O)[O-] | -23%
CS(=O)(=O)N1CCN(C(=O)NC23CC4CC(CC(C4)C2)C3)CC1 | -1%
COC(=O)c1ccc(COC(=O)c2ccccc2OC)cc1 | -22%
COc1cccc(C(=O)O/N=C(\N)c2ccncc2)c1 | -16%
COC(=O)C1=NN(C(=O)c2ccc(Cl)cc2)C(O)(c2ccccc2)C1 (stereo unspecified) | -17%
CCOc1ccc(N=Cc2c(O)cc(C)oc2=O)cc1 | -12%
NCCC[C@@H](CC(=O)N[C@@H]1CCCC[C@H]1C(=O)N[C@H](CC(=O)N[C@@H](CCC(=O)O)CC(=O)O)Cc1ccccc1)NC(=O)C[C@H](CO)NC(=O)[C@@H]1CCCC[C@H]1N | -1%
CCC(C)C1C(C#N)=C(N)Oc2n[nH]c(-c3ccccc3)c21 (stereo unspecified) | -11%
COc1cc(C(=O)NCC(=O)n2nc(C)cc2C)cc(OC)c1OC | -6%
COc1ccc2[nH]c(=O)c(CN(Cc3ccco3)C(=O)c3ccccc3)cc2c1 | ?
CCC(=O)Oc1ccc2c(=O)c(-c3ccc4ccccc4n3)c(CC)oc2c1C | -10%
N#Cc1cc(-c2ccccc2)cnc1Sc1ccc(Cl)cc1 | ?
O=C(NCCc1ccccc1)c1ccccc1NC(=O)C1CC=CCC1C(=O)O (stereo unspecified) | -11%
O=C(C1CCC1)N1CCc2cc(S(=O)(=O)N3CCN(c4ccccn4)CC3)ccc21 | -10%
Cc1csc2ncc(C(=O)N(Cc3ccccc3)c3ccccn3)c(=O)n12 | -14%
COc1ccccc1NC(=S)N(CCc1c(C)[nH]c2ccccc12)Cc1cccs1 | -8%
N#Cc1c2c(c(NCCN3CCOCC3)n3c1nc1ccccc13)CCCC2 | ?
CCOc1ccccc1NC(=O)C1CCN(S(=O)(=O)c2c(C)nn(C)c2C)CC1 | -5%
CCC(=O)c1cn(CC(=O)NCC2CCCO2)c2ccccc12 (stereo unspecified) | -9%
N#Cc1ccc(CSc2nnc(-c3ccccn3)n2-c2ccc(Cl)cc2)cc1 | -13%
SMILES | HPGD inh
CCCCOc1ccc(-c2nnn(CCC(=O)N3CCOCC3)n2)cc1 | -6%
N/C(Cc1ccccc1Sc1ccccc1)=N\O | -28%
O=C(CCc1ccccc1)NNC(=O)c1ccccc1C(=O)O | -7%
COc1ccc(/C=C/C(=O)Nc2ccccc2C(F)(F)F)cc1 | -14%
Cc1ccc2cc(C#N)c(SCC(=O)N3CCCc4ccccc43)nc2c1 | -20%
CCCCn1c(=N)n(CC(=O)C(C)(C)C)c2ccccc21 | -13%
CCOc1ccccc1OCCOCCOc1ccccc1[N+](=O)[O-] | -5%
COc1cc(CNC2CCCC2)cc(Cl)c1OCc1ccccc1F | -7%
COc1cccc(Nc2ncccc2C(=O)NCc2ccccc2)c1 | -7%
COC(=O)c1ccccc1NC(=O)COc1ccc(S(=O)(=O)N2CCCC2)cc1C | -29%
Cn1nc(SCC(=O)O)sc1=S | 14µM*
Cc1cc(C)cc(C(=O)NCC(=O)OCC(=O)N(C)C2CCS(=O)(=O)C2)c1 (stereo unspecified) | 0%
CCc1ccccc1N(C1=NCCCS1)S(=O)(=O)c1ccc(C(C)(C)C)cc1 | -17%
O=C(Cn1cnc2ccccc21)OCC(=O)N1CCCc2ccccc21 | -4%
CC(NC(=O)CCC(=O)N1CCN(S(=O)(=O)c2ccc(Cl)cc2)CC1)c1ccccc1 (stereo unspecified) | -5%
O=c1[nH]cnc2c1ncn2C1CC(O)C(CO)O1 (stereo unspecified) | -1%
CCC[C@@H]1C[C@@]1(CCC)C(NP(=O)(c1ccccc1)c1ccccc1)c1ccc(Cl)cc1 (stereo partly specified) | -15%
COC(=O)c1ccc(C(=O)OC)nc1 | -6%
Cc1ccc(NC(=O)CCc2ccc(S(=O)(=O)NC3CCCCC3)cc2)cc1 | -3%
COc1ccc(N(CC(=O)Nc2cccc(N(C)S(C)(=O)=O)c2)S(C)(=O)=O)cc1OC | -5%
Cc1[nH]n(-c2ccccc2)c(=O)c1N=Nc1ccccc1C(=O)N1CCOCC1 | -3%
O=C(CS(=O)(=O)c1cn(Cc2ccc(Cl)cc2)c2ccccc12)N1CCCCC1 | -12%
Cc1ccc(-n2ncc3c(=O)n(Cc4cccnc4)cnc32)cc1 | -9%
COc1ccc(N2C(=O)C3CCCN3C2c2cccc(OC)c2OC)cc1 (stereo unspecified) | -6%
O=C(c1ccccc1C(=O)N(c1ccccc1)c1ccccc1)N1CCCCC1 | -2%

Nothing new here: entries from further up.
SMILES | HPGD inh
CCCCOc1ccc(-c2nnn(CCC(=O)N3CCOCC3)n2)cc1 | -6%
N/C(Cc1ccccc1Sc1ccccc1)=N\O | -28%
O=C(CCc1ccccc1)NNC(=O)c1ccccc1C(=O)O | -7%
COc1ccc(/C=C/C(=O)Nc2ccccc2C(F)(F)F)cc1 | -14%
Cc1ccc2cc(C#N)c(SCC(=O)N3CCCc4ccccc43)nc2c1 | -20%
CCCCn1c(=N)n(CC(=O)C(C)(C)C)c2ccccc21 | -13%
CCOc1ccccc1OCCOCCOc1ccccc1[N+](=O)[O-] | -5%
COc1cc(CNC2CCCC2)cc(Cl)c1OCc1ccccc1F | -7%
COc1cccc(Nc2ncccc2C(=O)NCc2ccccc2)c1 | -7%
COC(=O)c1ccccc1NC(=O)COc1ccc(S(=O)(=O)N2CCCC2)cc1C | -29%
Cn1nc(SCC(=O)O)sc1=S | 14µM*
Cc1cc(C)cc(C(=O)NCC(=O)OCC(=O)N(C)C2CCS(=O)(=O)C2)c1 (stereo unspecified) | 0%
CCc1ccccc1N(C1=NCCCS1)S(=O)(=O)c1ccc(C(C)(C)C)cc1 | -17%
O=C(Cn1cnc2ccccc21)OCC(=O)N1CCCc2ccccc21 | -4%
CC(NC(=O)CCC(=O)N1CCN(S(=O)(=O)c2ccc(Cl)cc2)CC1)c1ccccc1 (stereo unspecified) | -5%

Later entries:
SMILES | HPGD inh
CN=C(Nc1cccc(OC)c1)SC1CC(=O)N(c2ccc(C(=O)O)cc2)C1=O (stereo unspecified) | -12%
C=CCOC(=O)N[C@H](/C(C(=O)OC)=C(\C)NCc1ccccc1)c1cccc(OC)c1 | -8%
Cc1ccc(S(=O)(=O)Nc2ccccc2-c2ccccc2NS(=O)(=O)c2ccc(C)cc2)cc1 | -15%
O=C(O)c1ccc(Cl)c(Cl)c1 | -8%
CN(C(=O)COC(=O)c1cc(-c2ccccc2Cl)nc2ccccc12)C1CCS(=O)(=O)C1 (stereo unspecified) | -15%
CN1C(=O)CS(=O)c2ccc(C(=O)NC3CC3)cc21 (stereo unspecified) | 0%
Cc1cccc(Cn2c(=O)n(-c3ccc(CC(=O)NCc4ccco4)cc3)c(=O)c3sccc32)c1 | -18%
CN(C)C1C(=O)C(C(N)=O)=C(O)[C@@]2(O)C(=O)C3=C(O)c4c(O)ccc(Cl)c4C(O)[C@H]3C[C@@H]12 (stereo partly specified) | -15%
CN(C)c1nc(N2CCN(c3ccccc3)CC2)c(C#N)c(=O)o1 | 16µM*
O=C(COC(=O)CCC(=O)c1ccc(F)cc1)Nc1ccc(N2CCOCC2)cc1 | 18µM*
Cc1ccc(NC(=O)N/C=C/c2ccco2)c(C)c1 | -9%
COc1cccc(-n2c(COc3ccc(C)cc3)nnc2SCC(N)=O)c1 | -22%
CCC(CC)c1nnc(NC(=O)c2c(-c3ccccc3)noc2C)s1 | -11%
COC(=O)CNC(c1ccccc1)c1cc(Br)ccc1NC(=O)CNC(=O)OCc1ccccc1 (stereo unspecified) | -24%
COc1ccccc1-c1nnc(SCC(=O)Nc2ccc(S(N)(=O)=O)cc2)n1C | -5%
CCOC(=O)N1CCC(N2CC34C=CC(O3)C(C(=O)Nc3ccc(C)cc3)C4C2=O)CC1 (stereo unspecified) | -7%
Cc1ccccc1-n1nc(C)c2cc(C(=O)N3CCN(S(=O)(=O)c4ccc(F)cc4)CC3)sc21 | -18%
CC(NC(=O)c1cc2ccccc2o1)c1cccs1 (stereo unspecified) | ?
O=C(Nc1ccccc1)c1ccc[nH]1 | -15%
N#CCOc1ccc(C2=NO[C@@H]3[C@@H]4C[C@@H]([C@H]5C(=O)N(c6ccc7c(c6)OCO7)C(=O)[C@@H]45)[C@H]23)cc1 | -2%
CCn1cc(C(=O)NC2CC3CCC2C3)c(=O)c2ccc(C)nc21 (stereo unspecified) | -11%
CN(C)CCCNC(=O)c1ccc(-c2nc(-c3ccc(Cl)cc3)cs2)cc1 | ?
Cc1cc2c(=O)n(CC(=O)N3CCN(c4ccccc4)CC3)cnc2s1 | -4%
CCCN1[C@H](C(=O)OC)C[C@@]2(O)[C@@H](O)[C@@H](O)[C@@H](O)C[C@@H]12 | -10%
COc1ccc(-c2nnc(-c3cc4ccccc4oc3=O)o2)cc1 | ?
SMILES | HPGD inh
N#C/C(=C/c1ccc2c(c1)OCO2)C(=O)NCCc1c[nH]c2ccccc12 | -14%
O=C(O)CCCCCNc1nc(=S)[nH]c2ccccc12 | -20%
Cc1cc(OCC(=O)Nc2ccc3c(c2)OCCO3)ccc1Cl | -4%
Cc1ccc(-n2c(SCC(=O)N3CCOCC3)nnc2-c2ccncc2)cc1 | -18%
O=c1c(C(c2ccccc2)c2c(O)nc3n(c2=O)CCS3)c(O)nc2n1CCS2 | -10%
CC(C)(C)C(=O)NCCN1CCN(C(=O)C(C)(C)C)CC1 | -5%
CC(C)n1c(NCc2cc(Cl)ccc2O)nc2ccccc21 | -29%
CNS(=O)(=O)c1ccc(Cl)nc1 | -9%
CCCCN(Cc1ccco1)C(=O)Cn1ncc2c(=O)oc3ccc(C)cc3c21 | -6%
CC(C)CNS(=O)(=O)c1ccc(S(=O)(=O)N2CCC3(CC2)OCCO3)cc1 | -1%
Cc1ccnc(-n2c(CCN3C(=O)c4ccccc4C3=O)nc3ccccc3c2=O)c1 | -5%
Cc1ccc(C(=O)Nn2c(O)c(C=C3N=c4ccccc4=N3)sc2=S)cc1 | -17%
COCC(=O)N1CCC[C@@]2(CCN(c3ccccn3)C2)C1 | -24%
COc1ccc(-n2c(N)c(C(=O)NCC3CCCO3)c3nc4ccccc4nc32)c(OC)c1 (stereo unspecified) | ?
COc1ccccc1NC(=O)c1cccs1 | -1%
COc1ccc(NS(=O)(=O)c2ccc(N3CCCC3)c(NC(=S)Nc3cccc(C)c3C)c2)cc1 | 13µM*
O=C(c1cccc(F)c1)N1CCC2(CC1)CCN(c1ccncc1)CC2 | -13%
O=S(=O)(NCc1ccccc1Cl)c1cnc[nH]1 | 2%
CCOc1cc(C(c2c(C)[nH][nH]c2=O)c2c(C)[nH][nH]c2=O)ccc1OCc1ccc([N+](=O)[O-])cc1 | -11%
O=C(NC1CCCCC1)C1CCN(S(=O)(=O)c2cccc3nsnc23)CC1 | 0%
O=C(O)C(Cc1ccccc1)n1cccc1 (stereo unspecified) | -13%
CCOC(=O)Nc1nnc(-c2ccc(OC)c(OC)c2)s1 | ?
Cc1cc(C(F)(F)F)c2c(=O)[nH]c(=O)n(Cc3ccccc3)c2n1 | 10µM*
O=C(c1cc(-c2cccs2)on1)N1CCOCC1 | -23%
Cc1onc(-c2ccccc2)c1C(=O)Nc1nnc(COc2ccc(Cl)cc2)s1 | 2.5µM*
SMILES | HPGD inh
COC(=O)C1=C(CN2CCSCC2)NC(=O)NC1c1cc(C)ccc1C (stereo unspecified) | -5%
CC1=[N+](CC(=O)NC(C)(C)C)CCc2ccccc21 | -2%
OCC1OC(n2cnc3c(=S)nc[nH]c32)C(O)C1O (stereo unspecified) | -11%
NC(=O)COc1ccc(=O)n(-c2ccccc2)n1 | -4%
CCCCN(CCCC)S(=O)(=O)c1ccc2[nH]c(=O)[nH]c2c1 | 5%
COC(=O)C1C(=O)C2=C(CC1C)NC(C)=C(C(=O)OCCOc1ccccc1)C2c1ccc(C)o1 (stereo unspecified) | -23%
O=C(NCC(=O)N(c1cccnc1)C(C(=O)NCc1ccco1)c1ccccc1)c1ccco1 (stereo unspecified) | -3%
COC(=O)[C@@]1(Cc2ccc(OC)cc2)[C@H]2c3cc(C(=O)N4CCCC4)n(CCO)c3C[C@H]2CN1C(=O)c1ccccc1 | -15%&-1%
O=C(Nc1ccccc1N1CCCC1)c1cc2ccccc2o1 | -23%
CCOc1cc(CNC(C)C)c(Cl)cc1OCC(=O)NCCc1ccccc1 | 3%
C=CCSC(=C(C#N)C#N)c1cc2c([nH]1)CCCC2 | -23%
CCNS(=O)(=O)c1ccc(NC(=O)Nc2cccc(C(F)(F)F)c2)cc1 | -7%
COc1ccc(S(=O)(=O)Cc2ccc(C(=O)NCc3cccs3)o2)cc1 | -20%
O=C(C(NS(=O)(=O)c1cccs1)c1ccccc1)N1CCN(c2ccccc2)CC1 (stereo unspecified) | -11%
Nc1ccc(S(=O)(=O)NCCS(=O)(=O)O)cc1 | 4%
Cc1ccc(S(=O)(=O)N2CCC(=O)N(C(COCc3cccc(C(F)(F)F)c3)C(C)C)CC2)cc1 (stereo unspecified) | -17%
CCOCCCNC(=O)C(NC(=O)CNC(=O)c1ccccc1)c1ccccc1 (stereo unspecified) | -8%
O=C(Cn1nnc(-c2ccccc2F)n1)Nc1ccc2c(c1)OCO2 | -13%
Cc1nnc(SCC(=O)NCc2ccco2)[nH]c1=O | -18%
CC1=CC(c2ccc(Cl)cc2)n2nc(NC(=O)c3ccccc3)nc2N1 (stereo unspecified) | -16%
